# Source: PubChem BioAssay (several laboratories)
# Mtb hypoxia inh – reduces hypoxia-regulated biosensor signal in M. tuberculosis; M. tuberculosis hypoxia-regulated fluorescent reporter, fluorescence; fluorescence inhibition, % (no concentration beside the values); 0.1% of 300,000 active; AID 1159583;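 active = 35 to 45% if threefold the growth effect, above 45% if 1.5-fold the growth effect; inactive = the rest, general growth blockers included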;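 note: wells of about 50 µL received 100 nL stock; 0% = vehicle wells and 100% = reference inhibitor wells; whole bacteria with a GFP reporter of the hypoxia response; strong numbers were not always called active; many hits fall short of the cut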
# Bead autofluor – counter-screen for toxin protease inhibitors: compound fluorescence; compound autofluorescence counterscreen, microsphere flow cytometry; stronger effect = higher value; fluorescence intensity (no concentration beside the values); 3.1% of 360,000 active; AID 624483;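 active = at least 3 SD above the mean of all compounds, about 16000 in these data; inconclusive = too few beads counted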;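 note: 100 nL of 1 mM stock went into each well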
# Sa ugtP lethal – kills S. aureus RN4220 lacking UgtP. S. aureus RN4220 ugtP deletion, OD600 growth, 16 h; some inactives read as strong as hits. growth inhibition, % (test concentration not listed). 0.54% of 330,000 active. AID 1259309;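 active = z-score under -3 and OD600 up to 0.15 on both plates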;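 note: plate controls were untreated wells for no effect and antibiotic for full effect; wells of about 80 µL received 100 nL stock; the first replicate is given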
# PrP UTR inh – suppresses PrP 5' UTR mRNA reporter expression; cell-based PrP 5' UTR mRNA reporter, plate reader; inhibition, % (test concentration not listed); 0.35% of 340,000 active; AID 488862;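 active = every replicate at 50% or more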;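 note: 0 = median of the neutral control wells; tested in H4 reporter cells; numbers are from one replicate; inactives centre near -14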
# BJeLR viability – BJeLR cell viability loss; BJeLR (HRASV12) viability, CellTiter-Glo ATP luminescence, 48 h; reference of the scale not given here; AID 1554; inhibition, % (test concentration not listed); 0.17% of 300,000 active;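 active = replicate mean above 50%; inconclusive = above 50% but judged a plate artefact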;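 note: 50 nL library stock added to about 25 µL; numbers are from one replicate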
# RN4220 kill – S. aureus RN4220 growth inhibition. OD600, 16 h. inhibition, % (concentration not given with the values). 0.33% of 330,000 active. AID 1259311;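 active = z-score of -3 or lower and OD600 up to 0.18 on both plates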;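 note: plate controls were untreated cells for no effect and reference antibiotic for full effect; stock transfer was 100 nL into about 80 µL; one replicate is shown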
# Mtb hypoxia inh growth – recorded beside Mtb hypoxia inh, whose call it bears; growth inhibition, %; measured here: M. tuberculosis growth (absorbance);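 0% = vehicle and 100% = reference antibiotic; read after six days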
# Numbers without * were called inactive; ? = inconclusive; · = not tested or not shown. Rows are unselected; about 4% have a hit in one of these screens.
smiles	Mtb hypoxia inh	Mtb hypoxia inh growth	Bead autofluor	Sa ugtP lethal	PrP UTR inh	BJeLR viability	RN4220 kill
CCOCCCNC(=O)C1CCN(S(=O)(=O)N2CCCCC2)CC1	7	5	8015	5	-16	-4	2.3
CCn1nc(NC(C)=O)c2cc3cccc(C)c3nc21	16	1	3765	5	-38	-12	4.4
Cc1noc(C)c1NC(=O)N(C)C[C@@H]1Oc2ccc(NC(=O)Cc3cn(C)c4ccccc34)cc2CC(=O)N([C@H](C)CO)C[C@@H]1C	-7	2	4118	11	-10	·	-18
CCOC(=O)N1CCN(C(=O)c2ccccc2NC(=O)c2ccccc2Cl)CC1	-3	6	5318	-4	-10	-1	-0.8
O=c1c2c(nc3nc(NCc4ccc(Cl)cc4)[nH]n13)CCC2	8	27	4305	1	5	4	4.8
O=C(CNC(=O)C12CC3CC(CC(C3)C1)C2)OCc1cc(=O)n2cc(Br)ccc2n1	-2	5	3832	10	-17	-10	1.4
CCOC(=O)C(C)c1nn(C)c(=O)c2ccccc12 (stereo not drawn)	·	·	4394	2	-20	3	2.0
O=[N+]([O-])c1cccc(-c2nnc(SCc3cccnc3)o2)c1	10	1	4023	1	-32	9	2.3
O=C(NCc1ccco1)C1CCCN(S(=O)(=O)c2ccc(Cl)cc2)C1 (stereo not drawn)	7	3	10114	-1	-17	13	1.2
Cc1cccc(C(=O)N2CCc3cc(-c4nc(NC(=O)CN5CCCC5)sc4C)ccc32)c1	3	-1	3868	1	-13	-1	1.5
NNc1nc(-c2ccccc2Cl)nc2sc3c(c12)CCCC3	-7	-6	1822	8	-37	7	18
Cc1cccc(N2CCN(C(=O)C(C)n3nc(C)n4c(cc5occc54)c3=O)CC2)c1C (stereo not drawn)	-2	4	8813	0	3	-8	0.9
O=C(CSc1n[nH]c(-c2cccs2)n1)N1CCCCC1	11	1	5147	1	-28	5	2.9
O=C(CCN1C(=O)c2ccccc2C1=O)NCc1ccc(Cl)cc1	14	4	3867	12	-7	-3	2.9
CN(Cc1ccccc1)C(=O)C1CCN(Cc2ccc(F)cc2)CC1	·	·	3621	4	-3	-7	3.9
COC(=O)c1sc(-c2cccs2)cc1NC(=O)/C=C/C(=O)O	·	·	5384	·	-16	3	·
COc1cc2c(cc1OC)C(C)N(C(=O)Nc1cc(C)cc(C)c1)CC2 (stereo not drawn)	11	1	3803	7	-33	22	5.0
NS(=O)(=O)c1ccc(NC(=O)COc2cccc3ccccc23)cc1	16	13	?	-5	-6	-2	2.0
COC(=O)c1ccc(S(=O)(=O)N(CCO)Cc2ccccc2)n1C	7	4	5694	2	9	0	2.6
COc1cc(C)c(Br)cc1S(=O)(=O)NCCCN1CCOCC1	6	1	4934	5	-19	-1	3.8
O=C(c1ccc(Cl)c([N+](=O)[O-])c1)N1CCN(c2ccccc2)CC1	15	10	4407	8	-24	8	0.2
Cc1ccccc1NC(=S)NC1CCCC1	-4	-9	3217	8	-15	-4	4.8
COc1ccc(S(=O)(=O)NCc2cccnc2)cc1C(=O)NC1CCCCC1	11	0	5999	8	-59	-17	3.5
CCc1noc(C)c1C(=O)Oc1ccc(N(C)S(=O)(=O)c2ccccc2)cc1	-11	8	6165	-8	-2	-2	-0.3
CCCCOc1ccc(C(=O)NCC(=O)NCC(c2ccc(OC)cc2)N2CCCC2)cc1 (stereo not drawn)	-2	-7	·	6	-15	7	0.9
COC(=O)c1cccn(CC(=O)c2ccc(Cl)cc2)c1=O	11	-2	3256	4	-8	2	4.1
O=C(CSc1ccccn1)Nc1ccc(F)c([N+](=O)[O-])c1	8	-4	3248	7	-19	7	9.0
CCN(CC)C(=O)NC1CC(=O)N(c2ccc(OC)cc2)C1 (stereo not drawn)	2	6	7578	0	-8	3	-1.0
CC(=O)Nc1cccc(NC(=O)CSc2nnc3ccc(-c4ccncc4)nn23)c1	3	8	5545	6	-22	-1	1.0
Cn1cc2c(=O)n(/N=C/c3ccccc3)cnc2n1	·	·	2431	·	-28	6	·
CCCCOc1ccc(C=NNC(=S)Nc2cc(C)ccc2C)cc1	1	0	·	28	·	·	3.6
Cc1ccc(NC(=O)CN2CCc3cc4c(cc3C2C)OCCCO4)cc1C (stereo not drawn)	4	-3	4684	2	-27	3	-3.1
NC(=O)c1ccccc1NC(=O)CCN1C(=O)c2ccccc2C1=O	5	-6	13569	3	-5	1	1.8
CN(CC(=O)Nc1cccc(F)c1)C(=O)CCc1nc2sc3c(c2c(=O)[nH]1)CCCC3	-1	11	·	-1	-4	0	1.9
CCCc1nc(-c2ccc(-c3ccc(F)cc3)cc2)no1	3	8	10450	5	-56	4	19
CCCN(CCC)Cc1c(C(=O)N/N=C/c2cccs2)nnn1-c1nonc1N	·	·	3468	·	-4	12	·
COc1ccccc1C=NNC(=O)COCC(=O)NN=Cc1ccccc1OC	6	9	·	6	·	·	4.0
Cc1ccc[n+](-c2[nH]c(=O)sc2C=NNC(=O)c2ccccc2[O-])c1	-3	2	·	4	·	·	5.0
CC1CCC(N2CCN(C(=O)c3ccccc3F)CC2)CC1 (stereo not drawn)	10	-9	4100	2	-16	9	-0.1
O=C(Nc1cccs1)N1CCN(c2ncccn2)CC1	15	7	3484	3	-4	-3	2.2
CCN1CCCC1Cn1cnc2c([nH]c3ccc(OC)cc32)c1=O (stereo not drawn)	11	6	6083	0	-9	-6	1.8
Cn1c(SCc2cc(=O)n3cc(Br)ccc3n2)nnc1C1COc2ccccc2O1 (stereo not drawn)	14	6	9604	0	-24	7	3.4
CCCCCCCCCCCCN1C/C(=C\C(=O)OCC)c2ccccc2S1(=O)=O	·	·	3798	·	2	4	·
Cc1cc(C)nc(N2CCCC(C(=O)Nc3ccc4nc(C)c(C)nc4c3)C2)n1 (stereo not drawn)	13	0	8398	9	-12	0	2.0
Cn1c(SCC(=O)Nc2ccc3c(c2)oc2ccccc23)nnc1-c1ccccc1	2	5	9740	0	-17	1	-3.5
CC1CCN(CCCNC(=O)CCc2nnc3n(CCc4ccccc4)c(=O)c4ccccc4n23)CC1	-7	-6	5099	14	7	-7	3.3
O=C(Nc1cccnc1)c1ccc2nc(-c3ccccc3)c(-c3ccccc3)nc2c1	9	0	10171	14	-39	9	0.6
CC(NC(=O)c1cc(-c2ccc(Br)cc2)on1)c1ccccc1 (stereo not drawn)	8	3	10133	0	-30	-2	5.6
Cc1ccc(-n2c(SCC(=O)O)nc3sc4c(c3c2=O)CCCC4)cc1	6	1	3125	5	-13	-2	7.2
CC(=NNC(=O)C(O)(c1ccccc1)c1ccccc1)c1ccc(C)o1	6	8	·	4	·	·	1.4
CCN(CC)CCOC(=O)C(Cc1ccco1)Cc1cccc2ccccc12 (stereo not drawn)	2	10	4120	11	-6	-3	0.6
CCCCc1nc2c(=O)[nH]c3ccccc3c2o1	10	10	3780	-9	-34	-1	6.2
Cn1ncc2nnn(-c3ccccc3)c(=O)c21	·	·	4277	2	-12	·	-2.9
O=C(CSc1nc2nc(-c3cccs3)cc(C(F)(F)F)c2c(=O)[nH]1)C(F)(F)F	1	-3	4039	-1	-28	-2	14
COc1ccc(-n2nc3c(c2NC(=O)C2CCCC2)CS(=O)C3)cc1 (stereo not drawn)	2	14	5301	-2	-12	0	1.3
COc1cccc(-n2nc3c(=O)n(Cc4ccccc4Cl)nc(C)c3c2C)c1	0	0	10452	-3	-31	-5	7.0
CCCC1(C(=O)OCC)NC(c2ccc(N(C)C)cc2)C2C(=O)N(c3ccccc3)C(=O)C21 (stereo not drawn)	8	9	3912	3	11	2	3.5
Cc1ccc(NC(=O)Cn2cncc2-c2ccc([N+](=O)[O-])cc2)cc1C	1	4	2995	-6	-17	-3	-13
O=C(COC(=O)c1cccnc1Cl)NCc1ccc2c(c1)OCO2	7	4	2611	13	-27	0	3.2
Cc1csc(NC(=O)c2nn(C)c(C)c2[N+](=O)[O-])n1	4	2	2383	0	-19	-5	0.4

# Carrying on:
smiles	Mtb hypoxia inh	Mtb hypoxia inh growth	Bead autofluor	Sa ugtP lethal	PrP UTR inh	BJeLR viability	RN4220 kill
C=CCn1cccc(C(=O)Nc2ccc(OC)cc2)c1=O	6	0	4333	-3	-21	4	-6.9
CC1CCCN(C(=O)CSc2nnc(-c3cccnc3)n2C2CCCCC2)C1 (stereo not drawn)	-20	5	11346	-3	-3	7	-1.6
CCC(=O)Nc1ccccc1-c1nc2ccccc2[nH]c1=O	7	1	2930	7	-38	-1	0.5
O=C(c1cc(COc2ccc3ncccc3c2)on1)N1CCCC(O)C1 (stereo not drawn)	4	7	4519	-65	-8	0	15
Cc1cc(Br)ccc1SCC(=O)Nc1cccnc1	-3	-4	5154	3	-46	4	3.4
Cc1nc2ccc(N=NC3=C(O)CCCC3=O)cc2s1	·	·	4508	1	-20	2	1.6
CC(=O)Nc1ccc(C(=O)NN=C(C)CC(=O)Nc2ccc(OCc3ccccc3)cc2)cc1	-1	-4	·	0	·	·	-4.7
O=C1OCCC1Sc1ncnc2sc3c(c12)CCC3 (stereo not drawn)	14	7	4169	-1	-5	1	-0.9
CNCCOc1nc(N2CCOCC2)nc(C)c1[N+](=O)[O-]	-10	-11	2694	3	-10	1	5.1
CC(C)N1CC(COc2ccccc2Cl)OC1=O (stereo not drawn)	11	-1	4693	-1	-17	2	4.2
COc1ccc(C2CC(=O)Oc3cc(O)cc(O)c32)cc1 (stereo not drawn)	·	·	3991	11	-2	-6	1.8
CC(C)(C)c1ccc(NC(=O)c2ccc3c(c2)S(=O)(=O)c2ccccc2C3=O)cc1	9	0	3352	5	-10	9	-8.4

# 2 of the compounds above, field by field.
Compound: CC(=O)Nc1ccc(C(=O)NN=C(C)CC(=O)Nc2ccc(OCc3ccccc3)cc2)cc1
  Mtb hypoxia inh: -1 | Mtb hypoxia inh growth: -4 | Bead autofluor: · | Sa ugtP lethal: 0 | PrP UTR inh: · | BJeLR viability: · | RN4220 kill: -4.7

Compound: C=CCn1cccc(C(=O)Nc2ccc(OC)cc2)c1=O
  Mtb hypoxia inh: 6 | Mtb hypoxia inh growth: 0 | Bead autofluor: 4333 | Sa ugtP lethal: -3 | PrP UTR inh: -21 | BJeLR viability: 4 | RN4220 kill: -6.9

# Following part
smiles	Mtb hypoxia inh	Mtb hypoxia inh growth	Bead autofluor	Sa ugtP lethal	PrP UTR inh	BJeLR viability	RN4220 kill
CC(C)CC(=O)NC(=S)Nc1ccc(S(=O)(=O)NC(C)(C)C)cc1	-3	2	2365	87*	-22	-7	3.3
CSc1nc(Cc2ccccc2)cc(=O)[nH]1	2	6	4504	3	-8	-6	-0.1
CCS(=O)(=O)c1ccc(OC)c(N=Nc2ccc(O)c3ncccc23)c1	0	-4	4103	-6	-23	14	-8.1
CCn1ccc(C(=O)Nc2ccsc2C(=O)OC)n1	14	9	6367	0	-11	7	2.7
O=C(NC1CCCC1)C(c1ccncc1)N(C(=O)c1ccco1)c1ccccc1 (stereo not drawn)	16	-1	3006	5	-15	4	0.7
COc1ccc(NC(=O)COC(=O)C2CC(=O)N(Cc3ccc(C)cc3)C2)cc1 (stereo not drawn)	15	2	5895	18	-8	-6	3.3
O=c1[nH]c(=S)n(-c2ccccc2Cl)c(O)c1C=NCCN1CCNCC1	-1	1	3797	-6	-3	1	0.1
COc1cc(C(=O)Nc2nnc(C3CC3)s2)ccc1OCc1c(C)noc1C	13	6	4294	10	-31	-7	5.3
Cc1ccc(S(=O)(=O)N2CCC(C(=O)N3CCC3)CC2)cc1	-2	-5	5671	6	0	-1	1.8
C#CCOCCOCCOCCNc1nc(N2CCN(C(=O)C(CCCCN)n3cc(C(N)CC(C)C)nn3)CC2)nc(N2CCN(C(=O)C(Cc3ccc(O)cc3)n3cc(C(N)C(C)CC)nn3)CC2)n1 (stereo not drawn)	4	20	·	0	·	·	1.0
CCc1ccc(S(=O)(=O)c2cn(C)c3cc(OC)c(OC)cc3c2=O)cc1	3	-7	4383	9	-15	1	4.6
CC(=O)NC(CC(=O)OCC(=O)c1c(N)n(C)c(=O)n(C)c1=O)c1ccccc1 (stereo not drawn)	10	5	5558	7	-23	-10	8.0
Oc1ccc2ccccc2c1N=Nc1ccc(F)cc1	-1	0	3896	-6	-10	7	2.7
